gsp antag – qHTS for Antagonists of gsp, the Etiologic Mutation Responsible for Fibrous Dysplasia/McCune-Albright Syndrome: qHTS; gsp-mutant cells, cAMP HTRF, 30 min; control for the full effect not named in the record; 340,000 compounds, 0.4% hits; Potency, µM (titrated, usually from 76.9 µM), without a hit: at the highest dose activity change, negative = inhibition, most hits filed as inhibitors; active = falling curve of any shape with a large fitted effect; inconclusive = falling curve, mostly with a smaller effect; inactive = flat or rising curve; cell line not stated here;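 note: intracellular cAMP measured with PDE inhibitor Ro 20-1724 present during compound exposure; potency is the fitted concentration of half-maximal effect; % is set by controls: 0 for no effect and ±100 for the full control effect; nearly all actives have a fitted effect of over 65% in size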
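Cells in G418 medium, seeded 16-24 h, 37C; buffer exchange to DPBS + 1 mM CaCl2, 0.5 mM MgCl2, 0.05% BSA; cpds in DMSO + […] (300 uM stock), 30 min 37C; HTRF cAMP detection.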
D2 agonist – Beta-Arrestin HTS for Positive Allosteric Modulators of the Human D2 Dopamine Receptor: Agonists | D(2) dopamine receptor (Homo sapiens), P14416 | DiscoveRx PathHunter D2 beta-arrestin, luminescence, 90 min; 100% = 57 uM dopamine signal | AID 624465, 2012 | activation, % (no concentration beside the values) | 360,000 compounds, 0.084% hits; in the data active = activation above about 40%; inconclusive = about 15% to 40%; inactive = below about 15%; note: compound concentration not given in the record; the text of the record calls up to 30% inactive
Target sequence (P14416 whole entry, looked up): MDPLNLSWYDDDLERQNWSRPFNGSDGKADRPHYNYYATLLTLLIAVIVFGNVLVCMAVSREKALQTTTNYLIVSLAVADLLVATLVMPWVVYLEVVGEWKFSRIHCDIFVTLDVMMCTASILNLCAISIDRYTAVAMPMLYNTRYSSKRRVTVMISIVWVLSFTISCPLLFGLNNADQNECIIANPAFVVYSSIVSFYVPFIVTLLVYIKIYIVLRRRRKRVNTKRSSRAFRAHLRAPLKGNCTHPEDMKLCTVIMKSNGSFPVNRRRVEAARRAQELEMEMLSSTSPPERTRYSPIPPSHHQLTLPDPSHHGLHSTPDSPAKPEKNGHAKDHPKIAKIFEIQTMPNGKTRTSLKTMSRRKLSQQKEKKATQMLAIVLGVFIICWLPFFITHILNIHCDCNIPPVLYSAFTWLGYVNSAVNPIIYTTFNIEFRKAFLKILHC
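DiscoveRx PathHunter D2 beta-arrestin cells (2,100/well) attached overnight, then compound-stimulated 90 min at 37 C in HBSS/10 mM HEPES/0.1% Tween-20 buffer; beta-galactosidase complementation read by luminescence after 1 h at ambient temperature. Dopamine 57 uM final (EC100) as control.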
gsp agonist – qHTS for Agonist of gsp, the Etiologic Mutation Responsible for Fibrous Dysplasia/McCune-Albright Syndrome: qHTS; gsp mutant cells, cAMP HTRF, 30 min; control for the full effect not named in the record; Potency, µM (highest dose often 76.9 µM), for inactives: at the highest dose activation (cAMP increase), usual class: activators; 340,000 compounds, 0.13% hits; AID 624287, 2012; active = well fitted activation curve with a large enough effect; inconclusive = small, poorly fitted or top-dose-only effect, or another doubt; inactive = no such curve, though single readings can be large or run the other way; cell line not stated here;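 note: phosphodiesterase inhibitor Ro 20-1724 added with compounds to block cAMP breakdown; potency is the fitted concentration of half-maximal effect; nearly all actives have a fitted effect of over 60% in size; about a fifth of the inactives were tested at one dose only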
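Cells stably selected in G418 were plated at 2000/well, grown 16-24 hr, then given compounds in DMSO with the PDE inhibitor […] (300 uM solution added) for 30 min at 37C; cAMP was read by HTRF.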
PINK1 modulator – A Quantitative High throughput Screen to Identify Chemical Modulators of PINK1 Expression; AID 624263, 2012; PINK1 immunofluorescence, high-content cytometry, 24 h; 410,000 compounds, 0.2% hits; Potency, µM (top dose mostly 76.6 µM), without a hit: top-dose activation (PINK1 increase), most hits filed as activators; active = well fitted activation curve with a large enough effect; inconclusive = small, poorly fitted or top-dose-only effect; inactive = flat fitted curve, though single readings scatter; cell line not stated here;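 note: potency is the fitted concentration of half-maximal effect; % of control where 0% means no effect; nearly all actives have a fitted effect of over 65% in size; a mitochondrial uncoupler was the plate control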
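Cells are seeded, rested 12 hours, then given compound at five concentrations or DMSO for 24 hours. After fixation, blocking and antibody staining, PINK1 amount and mitochondrial localization are scored; CCCP serves as control.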
ClpP mod – qHTS Assay for Activators of ClpP | Potency, µM (series often up to 57.5 µM), for the others: top-dose activity change, negative = active | purified B. subtilis ClpP, FRET peptide cleavage, 20 min | ATP-dependent Clp protease proteolytic subunit (Bacillus subtilis (strain 168)), P80244 | 340,000 compounds, 1.9% hits; active = well fitted falling curve with a large enough effect; inconclusive = small, poorly fitted or top-dose-only effect; inactive = no such curve, though single readings can be large or run the other way; note: potency is the fitted concentration of half-maximal effect; the source files actives as falling curves though it sought activators and does not explain the sign; nearly all actives have a fitted effect of over 65% in size; many hits overshoot -100%
Target sequence (P80244 whole entry, looked up): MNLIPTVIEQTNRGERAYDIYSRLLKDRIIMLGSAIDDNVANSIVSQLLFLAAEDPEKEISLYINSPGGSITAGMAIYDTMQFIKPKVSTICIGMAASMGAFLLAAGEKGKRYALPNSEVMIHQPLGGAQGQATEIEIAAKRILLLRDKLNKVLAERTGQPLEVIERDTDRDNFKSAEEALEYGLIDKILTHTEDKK
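ClpP 10 microg/mL final, pH 8 Tris/KCl buffer with BSA, glycerol, Tween-20; compound pinned in; FRET-FV substrate; RT 20 min; Ex320/Em430; ΔFRET vs ADEP 5.8 microM, DMSO, no enzyme.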
Menin MLL FP FL – qHTS Assay for Inhibitors Targeting the Menin-MLL Interaction in MLL Related Leukemias: Competition With Fluorescein Labeled MLL-derived Peptide; Fluorescence polarization, fluorescein-MLL peptide displacement from menin; AID 1766, 2009; FP activity change, % at 61.4 µM; 290,000 tested, under 10 active; inconclusive = falling polarisation curve, or a change in total fluorescence; inactive = total fluorescence flat and polarisation flat or rising; no compound was filed as active; the % refers to the polarisation; negative = inhibition;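 note: % of control where 0% means no effect; inhibitors lower the polarisation; unlabelled MLL peptide was the positive control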
Sfp inh – qHTS Assay for Inhibitors of Bacillus subtilis Sfp phosphopantetheinyl transferase (PPTase). 4'-phosphopantetheinyl transferase ffp (Bacillus subtilis), Q9F4F7. Biochemical Sfp PPTase activity, qHTS. Potency, µM, for the others: max response, negative = inhibition, usual class: inhibitors. 310,000 compounds, 3.5% hits. AID 1490, 2009; active = well fitted inhibition curve with a large enough effect; inconclusive = small, poorly fitted or top-dose-only effect, or another doubt; inactive = no such curve, though single readings can be large or run the other way;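 note: the enzyme is Sfp with the accession as filed and its product quenches rhodamine fluorescence; potency is the fitted concentration of half-maximal effect; 0% = enzyme reaction without inhibitor and -100% = no enzyme wells; top concentration of the series not given in the record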
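Step 1, compound plus 15 nM Sfp-PPTase, 15 min, room temperature. Step 2, add rhodamine-CoA (5 uM) and BHQ-2-YbbR (12.5 uM). Step 3, read 525/598 nm fluorescence at 0 and 30 min.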
Starred values were filed as active, the others as inactive; u = inconclusive; x = not tested or not shown; & = joins results of further samples; [ ] = dose if it differs, or a comment.

Sample of the layout, 4 compounds:
mol | Sfp inh | PINK1 modulator | Menin MLL FP FL | D2 agonist | gsp antag | gsp agonist | ClpP mod
Cc1ccc(-n2nnnc2Sc2ccc(S(=O)(=O)NCCN(C)C)cc2[N+](=O)[O-])cc1 | 18% | -1.3% | -1.6 | 4.2 | -5% | -3% | -2.8%
C#CCNC(=O)C1=C[C@H](c2ccccc2)C[C@H](OCCCCO)O1 | 10% | 2.5% | 1.4 | -2.8 | 2% | x | -5.1%
CCOC(=O)c1c(C)cc2c(CO)n[nH]c(=O)c2c1C | x | -2.3% | x | -1.4 | x | 25% | -5.6%
O=C(Nc1cccc(Br)c1)C1CCCC1 | x | 0.3% | x | -2.8 | 11% | 23% | 0.8%

Main list, from the first entry:
mol | Sfp inh | PINK1 modulator | Menin MLL FP FL | D2 agonist | gsp antag | gsp agonist | ClpP mod
Cc1ccc(-n2nnnc2Sc2ccc(S(=O)(=O)NCCN(C)C)cc2[N+](=O)[O-])cc1 | 18% | -1.3% | -1.6 | 4.2 | -5% | -3% | -2.8%
C#CCNC(=O)C1=C[C@H](c2ccccc2)C[C@H](OCCCCO)O1 | 10% | 2.5% | 1.4 | -2.8 | 2% | x | -5.1%
CCOC(=O)c1c(C)cc2c(CO)n[nH]c(=O)c2c1C | x | -2.3% | x | -1.4 | x | 25% | -5.6%
O=C(Nc1cccc(Br)c1)C1CCCC1 | x | 0.3% | x | -2.8 | 11% | 23% | 0.8%
CCC1CCCCN1CCCNC(=O)Cn1c(=O)c2cccn2c2cccnc21 (configuration not stated) | 3% | -1.0% | -8.6 | 11 | 36% | u | 4.3%
Cc1ccc(C(=O)CC(=O)c2cccc(F)c2)c(O)c1 | 17% | 7.7% | 3.9 | -1.3 | u | 26% | -1.2%
CC(C)=CCN1CCN(Cc2cccc3nonc23)CC1CCO (configuration not stated) | 13% | 0.7% | -0.2 | -0.3 | -3% | -25%[15.4 µM] | x
O=C(CNS(=O)(=O)c1ccccc1)Nc1ccc(C(F)(F)F)cc1 | 5% | 12%[38.3 µM] | -3.0 | 1.6 | 6% | -1% | 0.6%
O=C(COC(=O)c1ccc(F)c(S(=O)(=O)N2CCOCC2)c1)c1ccccc1 | x | 2.1% | x | -0.5 | -6% | 1% | 1.1%
COc1ccccc1Nc1nnc(SCC(=O)N2CCCC2=O)s1 | 5% | 1.4%[38.3 µM] | 0.7 | -2.3 | -1% | -34%[inhibitor] | 0.1%
COC(=O)[C@@]12CCCCN1[C@H](c1ccc(-c3ccc4c(c3)OCO4)c(OC)c1)[C@@H]1C(=O)N(C)C(=O)[C@@H]12 | x | -1.4% | x | -0.6 | u | -1% | -29%
CCN(CC)S(=O)(=O)c1ccc(C(=O)OCCNC(=O)c2cccnc2)cc1 | 6% | 0.4% | 6.8 | -3.0 | 20% | 32µM* | 1.5%

mol | Sfp inh | PINK1 modulator | Menin MLL FP FL | D2 agonist | gsp antag | gsp agonist | ClpP mod
Cn1nc([N+](=O)[O-])nc1Oc1ccc2ccccc2c1 | 4% | 5.1%[38.3 µM] | -0.8 | -1.8 | 10% | 2% | -2.8%
COCCNC(=O)C(=O)c1c(-c2ccccc2)[nH]c2ccccc12 | 22% | 0.5% | 1.1 | -1.9 | 1% | 16%[15.4 µM] | x
O=C(NCCc1ccccc1)c1nc2nc(-c3cccs3)cc(C(F)(F)F)n2n1 | u | -4.5% | -2.1 | -1.7 | u | 11% | u
CC(C)(C)c1ccc(OCCC(=O)NCCc2ccc(S(N)(=O)=O)cc2)cc1 | 20µM* | -0.7% | x | 1.5 | -2% | -24% | -1.1%
CC(C)c1ccc(S(=O)(=O)c2ccc(NN)cc2)cc1 | 2% | -3.8% | 1.1 | 4.0 | -3% | -30% | x
O=C(NCC(c1ccc(F)cc1)N1CCOCC1)c1cccnc1Sc1ccc(Cl)cc1 (configuration not stated) | x | 2.7% | x | -6.7 | 3% | 2% | -4.7%
Cc1ccn2c(=O)c(C(=O)NCCC3=CCCCC3)c(O)nc2c1 | -6% | 1.2% | x | 1.3 | -4% | 27% | 0.4%
O=C(COC(=O)/C=C/c1ccc(Cl)cc1)NCCN1C(=O)CSC1=O | 27% | -1.5% | -1.4 | 9.6 | 0% | -3% | 4.5%
CCN(CC)C1=NC=CC(c2ccccc2)=CC1C (configuration not stated) | -1% | 4.1% | 0.0 | -4.4 | 3% | 23% | -1.2%
O=[N+]([O-])c1ccc(Cl)c(-c2ccc(/C=N/n3cnnc3)o2)c1 | -7% | 11% | 1.3 | 2.6 | -7% | -12% | x
O=C(Nc1cccnc1)c1cnc2ccccc2n1 | 2% | -0.2% | 0.1 | -1.7 | -18%[15.4 µM] | -22% | u
N#CCc1c(C#N)c(N)nc(N2CCN(c3ccc(F)cc3)CC2)c1C#N | -11% | 12%[38.3 µM] | 13 | 5.2 | -3% | u | -2.3%

Some of these compounds in order of their number in Sfp inh, rising.
SMILES	Sfp inh
CCN(CC)C1=NC=CC(c2ccccc2)=CC1C (configuration not stated)	-1%
CC(C)c1ccc(S(=O)(=O)c2ccc(NN)cc2)cc1	2%
COCCNC(=O)C(=O)c1c(-c2ccccc2)[nH]c2ccccc12	22%
O=C(COC(=O)/C=C/c1ccc(Cl)cc1)NCCN1C(=O)CSC1=O	27%

(cont.)
mol | Sfp inh | PINK1 modulator | Menin MLL FP FL | D2 agonist | gsp antag | gsp agonist | ClpP mod
O=C(COC(=O)c1ccccc1NCCO)NCCC1=CCCCC1 | x | -1.2% | x | -8.3 | 11% | -5%[15.4 µM] | 25µM*
COc1ccc2c(c1)SCC/C2=C\CN1C(=O)CCC1=O | u | 1.1% | 3.4 | -0.5 | 0% | -81%[inhibitor] | -3.0%
CCOc1ccc(CCNC(=O)CN2C(=O)NC3(CCCCCC3)C2=O)cc1OCC | x | 4.0% | x | -1.9 | 0% | 4% | -0.8%
CCOC(=O)c1c(C)[nH]c(C(=O)CSc2nnc(C3CC3)n2N)c1C | -4% | -2.6% | 0.7 | -4.9 | 1% | -44%[inhibitor] | -0.7%
Cc1cc(OCc2cc(C(=O)N(Cc3nccn3C)C(C)C)no2)cc(C)c1Cl | 7% | -1.2% | x | u | 6% | 11% | -0.7%
CCN1CCN(S(=O)(=O)c2ccc(OC)c(Br)c2)CC1 | -2% | 2.6% | -1.0 | -2.4 | 6% | -11% | 1.6%
O=c1cc(-c2ccccc2Cl)oc2cccc(O)c12 | 4%&5% | 1.8% | -2.3[94.6 µM] | -2.4 | -4% | -9% | 1.7%
Cc1cccc(NC(=O)Nc2ccc([N+](=O)[O-])cc2)n1 | 16% | -1.2% | -0.9 | -4.9 | 1% | -26% | -0.2%
O=C(NC1CCCCCC1)c1cc2ccccc2oc1=O | -9% | 1.6% | -5.7 | -2.6 | 4% | -27% | x
O=C(Nc1cccnc1)c1ccc(Br)c(S(=O)(=O)N2CCCC2)c1 | 15% | 1.6% | x | -1.2 | -15% | -3%[15.4 µM] | 1.2%
CCCCNCC1C(Oc2ccc(Cl)cc2)C(=O)N1c1ccccc1C (configuration not stated) | 8% | 11% | 7.4 | -6.3 | -2% | 17%[15.4 µM] | x
CC1Cc2ccccc2N1C(=O)COc1ccc2c(c1)OCO2 (configuration not stated) | 13% | 1.4% | -3.3 | 0.3 | -11% | 6% | -0.1%

mol | Sfp inh | PINK1 modulator | Menin MLL FP FL | D2 agonist | gsp antag | gsp agonist | ClpP mod
C[C@H](CO)N1C[C@H](C)[C@@H](CN(C)Cc2ccncc2)Oc2c(NS(=O)(=O)c3cn(C)cn3)cccc2C1=O | x | 0.6% | x | -2.3 | -22% | 16% | -9.7%
Cc1cc(N(C)C)nc(Nc2ccccc2)n1 | x | -0.5% | x | -3.1 | 1% | u | -0.8%
O=C(NCc1ccccc1)C1=C[C@H](c2ccc(Br)cc2)C[C@H](OCc2ccc(CO)cc2)O1 | -12% | -1.0% | 2.4 | 0.4 | -19% | u | -0.4%
S=C(NCCN1CCOCC1)N/N=C/c1c2ccccc2cc2ccccc12 | -12% | 8.8% | 0.9 | -1.2 | 11% | u | -2.1%
CCCCCCCCN1[C@@H](CC(=O)O)c2ccc(C(F)(F)F)cc2S1(=O)=O | x | -0.4% | x | -1.3 | -14% | -30% | 1.4%&-1.3%
Cc1ccc(S(=O)(=O)c2cc(N3CCOCC3)nc(-c3ccccc3)n2)cc1 | 19% | 10% | 4.6 | -6.0 | -5% | -10% | -2.3%
Oc1ccccc1-c1nnc(COc2ccc(Cl)cc2Cl)o1 | -5% | 5.9% | -2.2 | -2.1 | -3% | -3% | u
CC1=C(C(=O)N2CCOCC2)CC(CC(=O)NCc2cccs2)C(=O)N1CCC1=CCCCC1 (configuration not stated) | x | 3.8% | x | -2.4 | x | -37%[inhibitor] | 2.5%
Cc1ccc(NC(=O)NCc2ccc3c(c2)OCO3)c(C)c1 | -2% | 3.4% | -0.2 | -2.1 | -2% | -21%[15.4 µM] | x

Screening data as filed in PubChem.
